PINK1 expr mod: changes PINK1 expression; PINK1 immunofluorescence, high-content cytometry, 24 h; Potency, µM (highest dose often 76.6 µM), without a hit: at the top dose activation (PINK1 increase), usual class: activators; 0.2% of 410,000 active; active = well fitted activation curve with a large enough effect; inconclusive = small, poorly fitted or top-dose-only effect; inactive = flat fitted curve, though single readings scatter; cell line not stated here;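 further: potency means the concentration at half of the fitted maximal effect; % of control where 0% means no effect; nearly all actives have a fitted effect of over 65% in size; a mitochondrial uncoupler was the plate control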
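A stable cell line was treated with compounds at 5 concentrations for 24 hours, with CCCP as control. PINK1 levels and mitochondrial localization were measured by immunofluorescence with mitochondrial, cell and nuclear markers after fixation, read by laser-scanning cytometry.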
gsp ag: activates gsp, the McCune-Albright syndrome mutation | 0.13% of 340,000 active | gsp mutant cells, cAMP HTRF, 30 min; control for the full effect not named in the record | Potency, µM (top dose mostly 76.9 µM), for the others: at the top dose activation (cAMP increase), most hits filed as activators; active = well fitted activation curve with a large enough effect; inconclusive = small, poorly fitted or top-dose-only effect, or another doubt; inactive = no such curve, though single readings can be large or run the other way; cell line not stated here;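 further: phosphodiesterase inhibitor Ro 20-1724 added with compounds to block cAMP breakdown; potency means the concentration at half of the fitted maximal effect; nearly all actives have a fitted effect of over 60% in size; about a fifth of the inactives were tested at one dose only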
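Cells stably selected in G418 were plated at 2000/well, grown 16-24 hr, then given compounds in DMSO with the PDE inhibitor […] (300 uM solution added) for 30 min at 37C; cAMP was read by HTRF.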
D2 agonist: human D2 receptor agonism in beta-arrestin assay; 0.084% of 360,000 active; P14416; activation, % (test concentration not listed); AID 624465; DiscoveRx PathHunter D2 beta-arrestin, luminescence, 90 min; 100% = 57 uM dopamine signal; in the data active = activation above about 40%; inconclusive = about 15% to 40%; inactive = below about 15%; further: compound concentration not given in the record; the text of the record calls up to 30% inactive
Target sequence (P14416 whole entry, looked up): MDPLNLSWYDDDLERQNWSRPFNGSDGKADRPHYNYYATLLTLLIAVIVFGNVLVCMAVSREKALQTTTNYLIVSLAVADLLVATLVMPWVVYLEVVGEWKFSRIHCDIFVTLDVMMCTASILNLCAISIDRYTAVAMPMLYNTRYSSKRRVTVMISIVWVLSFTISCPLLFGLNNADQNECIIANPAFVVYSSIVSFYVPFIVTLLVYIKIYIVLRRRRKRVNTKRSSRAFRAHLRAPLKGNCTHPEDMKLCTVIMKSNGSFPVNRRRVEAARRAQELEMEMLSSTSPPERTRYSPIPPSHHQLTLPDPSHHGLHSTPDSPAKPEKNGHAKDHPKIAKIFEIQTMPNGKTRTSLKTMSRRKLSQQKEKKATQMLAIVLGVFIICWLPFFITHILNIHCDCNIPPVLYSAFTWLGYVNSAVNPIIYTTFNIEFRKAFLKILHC
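DiscoveRx PathHunter D2 beta-arrestin cells (2,100/well) attached overnight, then compound-stimulated 90 min at 37 C in HBSS/10 mM HEPES/0.1% Tween-20 buffer; beta-galactosidase complementation read by luminescence after 1 h at ambient temperature. Dopamine 57 uM final (EC100) as control.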
ClpP mod: qHTS Assay for Activators of ClpP | AID 651965, 2013 | ATP-dependent Clp protease proteolytic subunit (Bacillus subtilis (strain 168)), P80244 | purified B. subtilis ClpP, FRET peptide cleavage, 20 min | Potency, µM (highest dose often 57.5 µM), for inactives: top-dose activity change, negative = active | 1.9% of 340,000 active; active = well fitted falling curve with a large enough effect; inconclusive = small, poorly fitted or top-dose-only effect; inactive = no such curve, though single readings can be large or run the other way; further: potency means the concentration at half of the fitted maximal effect; the source files actives as falling curves though it sought activators and does not explain the sign; nearly all actives have a fitted effect of over 65% in size; many hits overshoot -100%
Target sequence (P80244 whole entry, looked up): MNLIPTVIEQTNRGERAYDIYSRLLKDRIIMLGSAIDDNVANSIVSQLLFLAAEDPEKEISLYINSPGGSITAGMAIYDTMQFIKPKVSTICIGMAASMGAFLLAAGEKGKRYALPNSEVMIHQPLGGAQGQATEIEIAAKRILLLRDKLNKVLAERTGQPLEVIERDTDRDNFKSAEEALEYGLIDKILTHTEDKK
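Buffer: 100 mM Tris/HCl pH8, 100 mM KCl, 0.05% low protease BSA, 2.5% glycerol, 0.01% Tween-20. ClpP 10 microg/mL final; 20 min RT; delta FRET normalized to ADEP and DMSO controls.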
Sfp PPTase inh: inhibitors of Bacillus subtilis Sfp phosphopantetheinyl transferase | Biochemical Sfp PPTase activity, qHTS | Potency, µM, inactives show max response, negative = inhibition, hits mostly inhibitors | 3.5% of 310,000 active | Q9F4F7; active means well fitted inhibition curve with a large enough effect; inconclusive means small, poorly fitted or top-dose-only effect, or another doubt; inactive means no such curve, though single readings can be large or run the other way;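 further: the enzyme is Sfp with the accession as filed and its product quenches rhodamine fluorescence; potency means the concentration at half of the fitted maximal effect; 0% = enzyme reaction without inhibitor and -100% = no enzyme wells; top concentration of the series not given in the record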
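Sfp 15 nM + cpd, 15 min RT; start w/ rhodamine-CoA 5 uM, BHQ-2-YbbR 12.5 uM (final); 50 mM Hepes pH 7.6, 10 mM MgCl2, 0.01% NP-40, 0.01% BSA; read 525/598 nm at 0 and 30 min.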
Menin-MLL FL inh: displaces fluorescein MLL peptide from human menin; Fluorescence polarization, fluorescein-MLL peptide displacement from menin; 290,000 tested, under 10 active; FP activity change, % at 61.4 µM; inconclusive = falling polarisation curve, or a change in total fluorescence; inactive = total fluorescence flat and polarisation flat or rising; no compound was filed as active; the % refers to the polarisation; negative = inhibition;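 further: % of control where 0% means no effect; inhibitors lower the polarisation; unlabelled MLL peptide was the positive control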
gsp antagonist: gsp mutant antagonism | gsp-mutant cells, cAMP HTRF, 30 min; control for the full effect not named in the record | Potency, µM (doses to about 76.9 µM), for the others: top-dose activity change, negative = inhibition, actives largely listed as inhibitors | 0.4% of 340,000 active | AID 624288; active = falling curve of any shape with a large fitted effect; inconclusive = falling curve, mostly with a smaller effect; inactive = flat or rising curve; cell line not stated here;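 further: intracellular cAMP measured with PDE inhibitor Ro 20-1724 present during compound exposure; potency means the concentration at half of the fitted maximal effect; on the % scale 0 is the no-effect control and ±100 the full control effect; nearly all actives have a fitted effect of over 65% in size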
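G418-selected cells were plated in DMEM/10% FBS for 16-24 h at 37C, then treated with compounds plus the PDE inhibitor […] (300 uM solution added) for 30 min at 37C. Intracellular cAMP was measured by HTRF after 30 min lysis at room temperature.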
* hit, by the source's call; ? = inconclusive; · = no result given; & = joins results of further samples; [ ] = dose if it differs, or a comment.

#1 O=C(c1ccc(COc2ccc3c(c2)CCC3)o1)N1CCN(c2ccccc2)CC1
#2 COc1cc(CNCc2ccccc2)cc(Cl)c1OC
#3 COc1ccccc1NC(=O)c1sc2nc(N3CCOCC3)c3c(c2c1N)CCCC3
#4 NCCc1c(-c2ccccc2)n(-c2ccccc2)c2ccccc12
#5 Cc1noc(C)c1C(=O)OCC(=O)N(C)C1CCS(=O)(=O)C1 (centres undefined)
#6 CC(C)Nc1cc(C(C)(C)C)nc2c(-c3ccccc3)cnn12
#7 CN(CC(=O)NCc1ccccn1)S(=O)(=O)c1ccc2ccccc2c1
#8 CC(=O)NC(CC(=O)N1CCN(C(C)=O)CC1)c1ccccc1 (centres undefined)
assay / compound,1,2,3,4,5,6,7,8
PINK1 expr mod,-2.3%[38.3 µM],2.5%,5.5%,-2.5%,0.4%,5.5%,3.7%,-0.2%
gsp ag,26%,13%,3%[15.4 µM],27%,8%[15.4 µM],-2%[15.4 µM],-2%,5%
D2 agonist,0.9,-2.7,-7.4,-1.5,0.7,-6.0,3.2,-5.5
ClpP mod,-3.7%,-0.7%,8.9µM*,·,·,-1.4%,·,-1.6%
Sfp PPTase inh,·,-1%,3%,16µM*,15%,4%,28%,7%
Menin-MLL FL inh,·,1.4,·,2.8,7.2,5.4,1.4,·
gsp antagonist,-17%,-1%,-21%,16%,·,-19%,-2%,-3%

#9 Cn1cnnc1SCC(=O)Nc1cc(S(=O)(=O)N2CCCCCC2)ccc1Cl
#10 Cc1ccc(C2=C/C(=C/c3cccs3)C(=O)O2)cc1
#11 COc1ccccc1C(=O)Nc1ccnn1C1CCN(Cc2cnn(C)c2C)CC1
#12 O=c1[nH]c(=O)c2cc3ccccc3nc2[nH]1
#13 Clc1ccc(C2CC(c3ccccc3)Nc3ncnn32)cc1 (centres undefined)
#14 Cc1nc(-c2ccccc2Cl)sc1C(=O)/C=C/N(C)C
#15 CCOc1ccc(C(=O)OCC(=O)NC(C)C)cc1
#16 CC(=O)Oc1ccc(C(=O)O)cc1OC(C)=O
assay / compound,9,10,11,12,13,14,15,16
PINK1 expr mod,0.5%,15%,-1.0%,-0.1%,7.0%,3.8%,0.7%,-0.9%[38.3 µM]
gsp ag,?,-14%,-6%[15.4 µM],-2%,-2%,?,-15%,3%
D2 agonist,-2.4,-3.6,-6.1,-0.6,2.8,-0.8,6.0,-1.0
ClpP mod,0.9%,-1.9%,-2.9%,?,0.7%,0.7%,·,0.4%
Sfp PPTase inh,4%,-1%,-3%,·,4%,16%,22%,-18%
Menin-MLL FL inh,-1.3,7.9,-4.1,·,3.2,-0.7,0.5,-2.0
gsp antagonist,21%,-1%,10%,-2%,1%,-3%,7%,11%

Ordered by length of the SMILES (descending): some entries from above.
#9 Cn1cnnc1SCC(=O)Nc1cc(S(=O)(=O)N2CCCCCC2)ccc1Cl
#14 Cc1nc(-c2ccccc2Cl)sc1C(=O)/C=C/N(C)C
#13 Clc1ccc(C2CC(c3ccccc3)Nc3ncnn32)cc1 (centres undefined)
#12 O=c1[nH]c(=O)c2cc3ccccc3nc2[nH]1
#15 CCOc1ccc(C(=O)OCC(=O)NC(C)C)cc1
#16 CC(=O)Oc1ccc(C(=O)O)cc1OC(C)=O
assay / compound,9,14,13,12,15,16
PINK1 expr mod,0.5%,3.8%,7.0%,-0.1%,0.7%,-0.9%[38.3 µM]
gsp ag,?,?,-2%,-2%,-15%,3%
D2 agonist,-2.4,-0.8,2.8,-0.6,6.0,-1.0
ClpP mod,0.9%,0.7%,0.7%,?,·,0.4%
Sfp PPTase inh,4%,16%,4%,·,22%,-18%
Menin-MLL FL inh,-1.3,-0.7,3.2,·,0.5,-2.0
gsp antagonist,21%,-3%,1%,-2%,7%,11%

Carrying on.
#17 COc1ccc(NC(=O)NCCCN2CCN(c3ccccc3F)CC2)cc1
#18 CC(=O)c1ccc(N=C2NC(=O)C(CO)(CO)S2)cc1
#19 COCCN(C(=O)COC(=O)Cc1cccc(OC)c1)c1c(N)n(Cc2ccccc2)c(=O)[nH]c1=O
#20 O=[N+]([O-])c1cccc(-c2n[nH]c(=S)n2Cc2ccccc2)c1
#21 Brc1ccc(C2=CC(c3ccco3)n3nnnc3N2)cc1 (centres undefined)
#22 CCOc1ccc(NC(=O)CN(C)C(=O)c2cc([N+](=O)[O-])ccc2Sc2ccccc2)cc1OCC
#23 Cc1cc(/C=N/NC(N)=S)c(C)n1-c1ccc(Br)cc1
#24 CCCCCCCCCCCCCCCC(=O)NCCO
assay / compound,17,18,19,20,21,22,23,24
PINK1 expr mod,-1.1%,2.9%,-1.2%,-2.2%,13%,4.2%,1.8%,0.5%
gsp ag,-13%[15.4 µM],-1%,-4%[15.4 µM],-45%[inhibitor],0%[15.4 µM],-2%,8%[15.4 µM],·
D2 agonist,6.0,-6.0,-4.5,2.9,0.0,-1.8,-7.2,-2.0
ClpP mod,·,-1.1%,-3.6%,0.3%,0.8%,0.5%,0.8%,-3.3%
Sfp PPTase inh,-4%,-6%,·,-5%,21%,·,-29%,3%&8%&-20%&4%&12%
Menin-MLL FL inh,2.5,-8.1,·,4.1,6.3,·,8.7,0.4&0.0&-2.7&-3.3
gsp antagonist,7%,-1%,5%,-4%,6%,-30%,26%,4%

#25 CC(=O)c1cccc(NC(=O)c2ccncc2)c1
#26 COc1cc(C(=O)Nc2ccc3c(c2)C(=O)c2ccccc2C3=O)cc(OC)c1OC
#27 CCOC(=O)c1cc(C)[nH]c(=S)c1C#N
#28 CC(C)CN(C(=O)COC(=O)CCC(=O)c1ccc(F)cc1)c1c(N)n(Cc2ccccc2)c(=O)[nH]c1=O
#29 Cc1cc2ccccc2n2c(SCC(=O)Nc3ccc(S(=O)(=O)N4CCCCC4)cc3)nnc12
#30 CCOC(=O)C1(Cc2cccc(F)c2)CCN(Cc2c(C)nn(CC)c2C)CC1
#31 Cc1ccc(Cl)c(NC(=O)CCl)c1Cl
#32 CSc1nc2nc(-c3cccc(C(F)(F)F)c3)ccn2n1
assay / compound,25,26,27,28,29,30,31,32
PINK1 expr mod,-1.8%[38.3 µM],1.1%,0.6%,-0.9%,0.9%,2.6%,9.1%,4.7%
gsp ag,-24%,14%[15.4 µM],17%,-40%[inhibitor],-10%,-2%,-6%,-4%[15.4 µM]
D2 agonist,0.1,3.5,-3.5,1.3,-3.1,-6.2,-0.3,-2.5
ClpP mod,-0.3%,0.6%,-3.1%,-1.6%,37%,-0.9%,·,·
Sfp PPTase inh,21%,-12%,40µM*,·,16%,-3%,10%,14%
Menin-MLL FL inh,1.3,0.5,-2.7,·,-0.5,-0.2,-0.6,-2.1
gsp antagonist,2%,10%,0%,5%,-11%,-8%,2%,5%

#33 c1ccc2c(c1)Cc1cc3ccccc3nc1-2
#34 COC(=O)Cc1ccc(OCC(=O)Nc2ccc(OC(F)(F)F)cc2)cc1
#35 Cc1cccc(C(=O)Oc2ccc(/C=N/NC(=O)c3ccccc3O)cc2)c1
#36 CCN(CC)c1ccc(S(=O)(=O)N2CCOCC2)cc1NC(=O)Nc1ccccc1
#37 CCC(C)(C)NC(=O)C(c1cccn1C)N(C(=O)Cn1nnc2ccccc21)c1ccc(OC)cc1OC (centres undefined)
#38 COC(=O)CC(c1ccc(OC)c(OC)c1)c1ccc(OC)c(OC)c1
#39 O=C(NCCCn1ccnc1)c1cc(-c2cccs2)on1
#40 COCCn1c(C)cc2c(c1=O)C(c1ccco1)C(C#N)=C(N)O2 (centres undefined)
assay / compound,33,34,35,36,37,38,39,40
PINK1 expr mod,6.5%,1.1%,14%,1.9%,0.5%,1.8%,4.8%,5.4%[38.3 µM]
gsp ag,-5%,27%[15.4 µM],2%,5%[15.4 µM],1%,18%,-11%,3%
D2 agonist,-6.6,4.7,-2.2,-1.0,-2.5,1.7,-1.6,-2.5
ClpP mod,·,1.0%,-26%,2.0%,0.5%,·,-3.3%,?
Sfp PPTase inh,9%&-16%,24%,-7%,·,16%,-3%,13%,1%
Menin-MLL FL inh,11&-4.3,6.0,1.0,·,4.1,-3.2,-1.2,-0.1
gsp antagonist,-14%,-9%,?,?,18%,16%,2%,6%

#41 CC(C)=CCC/C(C)=C/CNC(=O)C[C@H]1C[C@H](C(=O)N2CCCCC2)[C@@]2(CCc3ccccc3)c3[nH]c4cc(-c5ccco5)ccc4c3CCN2C1=O
#42 Cn1cc(CN2CCC(C(=O)Nc3cccc(-c4cccc(F)c4)c3)CC2)cn1
#43 CCOC(=O)C1=CNS(=O)(=O)NC1c1ccc(C[C@H](NC(=O)CNC(=O)CCc2ccccc2)C(N)=O)cc1 (some centres undefined)
#44 CCOC(=O)N1CCN(S(=O)(=O)c2ccc(C(=O)N(CCCN(C)C)c3nc4ccc(OC)cc4s3)cc2)CC1
#45 CCOC(=O)CSc1nnc(-c2ccc(S(=O)(=O)N3CCOCC3)cc2)n1-c1ccccc1
#46 CC1(OC(=O)C2CCCC2)C(=O)C=C2C=C3CCCCN3C=C2C1=O (centres undefined)
#47 COC(=O)c1nnn(-c2nonc2N)c1CSCCO
assay / compound,41,42,43,44,45,46,47
PINK1 expr mod,0.5%,-0.8%,0.2%,-0.5%,-0.7%,2.5%,-3.6%
gsp ag,·,-2%,·,10%,-2%,2%,-22%
D2 agonist,-1.1,0.7,-0.6,0.7,-0.2,2.1,-0.3
ClpP mod,19%,-0.4%,-28%,-2.6%,?,-2.8%,-1.2%
Sfp PPTase inh,·,-2%,·,-6%,-2%,19%&-8%,15%
Menin-MLL FL inh,·,·,·,0.2,-0.9,-0.5[11.7 µM],3.4
gsp antagonist,7%,15%,8%,3%,-15%,1%,3%
